Rango complex inh – Rango-importin beta binding inhibition; Q14974; Rango CFP/YFP FRET sensor + importin beta, 45 min; Potency, µM (highest dose often 92.2 µM), for inactives: top-dose inhibition of complex formation; actives 0.031% (n = 340,000); AID 540263; active = rising FRET ratio curve, often small or poorly fitted; inconclusive = mostly compound fluorescence or quenching in the first reads; inactive = flat curves in all reads;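 note: potency is the fitted concentration of half-maximal effect; 0% = DMSO wells and 100% = buffer wells lacking importin beta; nearly all actives have a fitted effect of over 15% in size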
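FRET biosensor Rango (snurportin 1 IBB between N-terminal EYFP and C-terminal Cerulean), 50 nM in PBS/1 mM DTT/0.02% Tween-20/0.1% BSA, preincubated 5 min RT with compound; 0.125 microM importin beta added, 45 min RT, CFP/YFP FRET ratio read.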
miR-21 FLuc – raises the signal of a miR-21 reporter; HeLa miR-21 FLuc reporter, luciferase, 48 h; Potency, µM (series often up to 38.3 µM), inactives show top-dose reporter change, positive = more light; 340,000 tested, under 10 active; active = well fitted rising curve with a large enough effect; inconclusive = small, poorly fitted or top-dose-only effect; inactive = no such curve, though single readings can be large or run the other way;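 note: % of control where 0% means no effect; miR-21 action dims this reporter so a rising signal means less miR-21 action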
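HeLa cells stably expressing CMV-driven firefly luciferase with a downstream miR-21 binding sequence, endogenously expressing miR-21, were treated with titrations (up to about 40uM final) for 48 hours at 37 degree Celsius. Luciferase luminescence was read after lysis.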
Rango dissoc inh – prevents RanGTP from dissociating the Rango-importin beta complex | O95149+P62826 | Biochemical FRET Rango-importin beta, RanGTP-induced dissociation | Potency, µM (doses to about 46.1 µM), for inactives: top-dose activity change, negative = inhibition | actives 0.071% (n = 340,000) | AID 540253; active means falling FRET ratio curve, often poorly fitted, with flat reads before Ran was added; inconclusive means other falling curves, or compound fluorescence or quenching; inactive means flat or rising ratio curve;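 note: potency is the fitted concentration of half-maximal effect; % of control where 0% means no effect; nearly all actives have a fitted effect of over 45% in size; -100% = wells without RanGTP and RCC1; the record marks most hits as doubtful in a second field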
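Compounds sat 5 min at room temperature with 0.1 uM Rango biosensor plus 0.25 uM importin beta, then FRET pre-read. RanGTP-RCC1 (0.6 uM Ran, 2mM GTP, 0.2 uM RCC1) added for 45 min, and the CFP/YFP post-read measured blocked complex dissociation.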
GLA inh pH 4.5 – inhibitors of human alpha-galactosidase A at pH 4.5 | P06280 | purified enzyme, 4-MU-alpha-Gal fluorescence, pH 4.5 | activity change, negative = inhibition, % at 105 µM | 230,000 tested, under 10 active; inconclusive = small, poorly fitted or top-dose-only inhibition, or a rising curve; inactive = flat fitted curve, though single readings scatter; no compound was filed as active;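 note: 0% = full activity with enzyme and -100% = basal without enzyme; dose as in the result columns while the protocol names 77 µM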
Target sequence (P06280 whole entry, looked up): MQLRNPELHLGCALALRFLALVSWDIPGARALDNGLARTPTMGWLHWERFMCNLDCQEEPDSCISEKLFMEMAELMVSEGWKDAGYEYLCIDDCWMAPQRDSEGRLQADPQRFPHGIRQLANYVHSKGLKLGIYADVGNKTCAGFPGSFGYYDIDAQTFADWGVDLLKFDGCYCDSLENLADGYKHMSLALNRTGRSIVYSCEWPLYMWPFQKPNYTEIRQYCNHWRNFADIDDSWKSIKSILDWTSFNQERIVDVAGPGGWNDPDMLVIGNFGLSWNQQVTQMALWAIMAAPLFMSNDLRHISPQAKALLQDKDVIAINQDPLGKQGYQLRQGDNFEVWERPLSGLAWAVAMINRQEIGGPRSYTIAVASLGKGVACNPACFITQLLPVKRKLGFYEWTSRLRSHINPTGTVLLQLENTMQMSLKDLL
Numbers without * were called inactive; u = inconclusive; x = no result given; & = joins results of further samples. Only part of the results is shown. The share of hits here may be higher or lower than overall.

Fields – Rango complex inh	miR-21 FLuc	Rango dissoc inh	GLA inh pH 4.5
> Nc1nc2c(s1)CCc1ccccc1-2
→ -0.7%	-40%	2%	x
> COc1ccc(N2CCN(S(=O)(=O)c3cc(C)ccc3OC)CC2)cc1
→ 1.4%	-3%	12%	0
> COc1cc(NC(=O)c2ccc(Br)cc2)c(OC)cc1NC(=O)c1ccccc1
→ -0.4%	-5%	-14%	x
> Cc1cccc(OCCn2c(CCCO)nc3ccccc32)c1
→ 1.5%	-3%	-5%	8
> CCOc1cc(C(=O)Nc2cccnc2)cc(OCC)c1OCC
→ 2.1%	12%	-6%	x
> Cc1cc(C)nc(N/N=C/C(Cl)=C/c2ccccc2)n1
→ 0.2%	-46%	4%	-11
> O=C(c1ccc(Cl)cc1)C1CCCN(C(=O)c2csnn2)C1 (stereo not drawn)
→ 0.0%	-1%	24%	-3
> N#CC1=C(N)Oc2cc(N)ccc2C1c1ccccc1F (stereo not drawn)
→ u	20%	u	x
> COc1ccc(OCC(=O)NNC(=O)C2CCCO2)cc1 (stereo not drawn)
→ 0.4%	-1%	19%	5
> CCOc1ccccc1NC(=O)COC(=O)CN(C)S(=O)(=O)c1ccc(C)cc1
→ u	-5%	-10%	5
> CCC(C)c1ccccc1NC(=O)C(C)OC(=O)c1ccco1 (stereo not drawn)
→ -0.4%	x	0%	x
> COc1ccc(C(=O)NC(=S)N2CCC(C)CC2)cc1Br
→ -1.0%	-18%	-3%	x
> COc1ccc(C(=O)c2ccccc2Cl)cc1
→ -0.8%	-1%	1%	-1
> CC(C)c1ncc(S(=O)(=O)c2ccc(C(F)(F)F)cn2)c(N)n1
→ 0.6%	-4%	16%	-4
> O=C(NNC1CC(=O)N(c2ccccc2)C1=O)c1cccnc1 (stereo not drawn)
→ 0.2%	-2%	4%	-3
> N=c1n(CCN2CCCCC2)c2ccccc2n1CC(O)COc1ccccc1 (stereo not drawn)
→ 0.8%	-4%	-3%	7
> Cc1ccccc1CNS(=O)(=O)c1c(C(=O)N2CCCCC2)c(C)n(C)c1C
→ 2.2%	-2%	12%	x
> COc1ccc(/C=C2\N=C(SC)N(C)C2=O)cc1
→ 0.7%	-14%	2%	-3
> CCCc1nc(N2CCN(C)CC2)c2sc(=S)n(-c3ccccc3)c2n1
→ 5.3%	-2%	u	2
> c1ccc(NCc2nc(-c3ccccc3)no2)cc1
→ -2.3%	-48%	-10%	1
> Cn1ncc(Cl)c1C(=O)N1CCN(S(=O)(=O)c2ccc(F)cc2)CC1
→ 0.2%	-1%	10%	x
> Cc1nc(-c2ccccc2)ccc1C(=O)O
→ -1.7%	0%	8%	-4
> COc1cccc(/C=C2\Oc3cc(OCC(=O)N4Cc5ccccc5C[C@H]4C(=O)O)ccc3C2=O)c1
→ 0.1%	5%	-19%	x
> COCCNC(=O)C(=O)Nc1ccc(Br)cc1
→ -1.0%	-56%	9%	-5
> CCOC(=O)c1ccc(NC(=O)NCc2cccnc2)cc1
→ -0.1%	3%	-7%	x
> O=C(CCN1C(=O)c2ccccc2C1=O)Nc1ccc(-c2cn3ccsc3n2)cc1
→ -3.7%	3%	-6%	7
> COc1ccc(CC(=O)NCc2nnc(SCC(=O)Nc3cccc(F)c3)n2C)cc1
→ 1.8%	-1%	0%	5
> CCCCN(C(=O)c1ccc(S(=O)(=O)N(C)C)cc1)c1ccccc1
→ -1.3%	6%	2%	2
> COc1ccc(CNc2ccc(N3CCN(C(C)=O)CC3)cc2)cc1OC
→ 0.7%	x	5%	x
> NS(=O)(=O)c1ccc(CCNC(=O)c2ccc(OCC3CCCO3)cc2)cc1 (stereo not drawn)
→ 1.4%	0%	-8%	x
> Cn1cncc1C#Cc1ccc2cc(C3(O)CCCCC3)oc(=O)c2c1
→ 1.3%	x	13%	x
> Cc1ccc(CN2CCN(CC(=O)O)C2=O)cc1
→ -1.0%	-1%	0%	6
> C=CCN(CC(=O)NC1CCCC1)C(=O)C(=O)Nc1ccc2c(c1)OCCO2
→ 1.2%	-1%	7%	x
> O=C1CC2(CCCCC2)Oc2ccc(F)cc21
→ -1.5%	x	2%	x
> COc1ccc(CNC(=O)c2cccc(S(=O)(=O)N3CCN(c4ccc(F)cc4)CC3)c2)cc1
→ 1.5%	x	-2%	x
> Cc1ccc(OCc2cc(C(=O)Nc3ccccc3)oc2C)cc1
→ -1.1%	-34%	3%	-18
> COc1ccccc1OCc1cc(C(=O)N2CC3C[C@@H]4CC2C[C@H](C3)C4)no1
→ -0.4%	-42%	-2%	x
> CN1C(=O)N(C)C2(CC1(C)C)CC(C)(C)N(C)C(=O)N2C
→ -0.7%	0%	13%	10
> Cc1nc(N)nc(N/N=C/c2c(F)cccc2Cl)n1
→ 0.0%	-22%	0%	x
> COc1cc(CC(=O)N(C)CC(=O)Nc2cc(C)ccc2C)cc(OC)c1OC
→ -1.1%	0%	10%	x
> COc1ccccc1OCC(=O)Nc1c2c(nn1-c1ccc(C)cc1)CS(=O)(=O)C2
→ 1.6%	x	9%	x
> O=C(Cc1ccc2c(c1)OCCO2)N1CCN(S(=O)(=O)c2cccc(Cl)c2Cl)CC1
→ 1.4%	-5%	5%	-6
> COc1ccccc1Nc1nc(NCCO)nc(N2CCCC2)n1
→ 5.5%	x	-13%	x
> COc1ccccc1NC(=O)O/N=C(\N)c1ccccc1
→ -1.9%	0%	-15%	1
> COc1ccccc1NC(=O)c1ccccc1NC(=O)c1cc(Cl)ccc1NC(=O)c1ccco1
→ 0.6%	-5%	14%	1
> CC(O)Cn1c(N2CCCC2)nc2c1c(=O)n(C)c(=O)n2C (stereo not drawn)
→ 2.0%	-3%	36%	x
> CC(C)n1cnc2c(Nc3cccc(Cl)c3)nc(NCCCO)nc21
→ 5.5%	-3%	0%	1
> COc1ccc(CNc2n[nH]c(NCc3ccc(OC)c(OC)c3)n2)cc1OC
→ -2.8%	-6%	13%	-1
> COc1cc2[nH]c(=O)n(CCC(=O)N3CC=C(c4ccccc4)CC3)c(=O)c2cc1OC
→ 3.9%	-6%	11%	0
> COc1ccccc1C(=O)NC(CCSC)C(=O)NC1CC1 (stereo not drawn)
→ 0.8%	x	1%	x
> N/C(CSc1nc(-c2ccccc2)c(-c2ccccc2)o1)=N\O
→ 3.3%	-4%	1%	2
> CCCCCCCCOC(=O)C[N+](C)(C)C/C=C(/C)Cl
→ 4.7%	-2%	-2%	8
> CCC(=O)N(c1ccc(C(=O)O)cc1)c1nc(-c2ccc(OC)cc2)c(C)s1
→ -2.1%	-10%	23%	6
> CC(C)(CO)Nc1nc(Cl)nc(NC2CCCCC2)n1
→ -1.8%	-7%	6%	0
> Cc1c(-c2ccc(F)cc2)[n+](=O)c2c(n1[O-])CCCCC2
→ 0.4%	-5%	-12%	6
> CC1CCC(C(C)C)C(OC(=O)CSc2nnc(N)s2)C1 (stereo not drawn)
→ 0.9%	-2%	-3%	-6
> COc1ccc(S(=O)(=O)N2CCCCC2)cc1NC(=S)Nc1cccc(Cl)c1C
→ 1.4%	-3%	9%	-12
> ONC(=Nc1cccc(C(F)(F)F)c1)c1cccnc1
→ -4.0%	-5%	1%	-6
> COc1ccc(/C=C\c2cc(OC)c(OC)cc2CC[N+](C)(C)C)cc1OC
→ 0.1%	1%	1%	5
> CCOC(=O)COc1ccc(S(=O)(=O)N2CCN(c3ccccc3)CC2)cc1
→ 3.0%	-26%	3%	-1

Reprinted from the part before: 2 entries, followed by the next part.
Fields – Rango complex inh	miR-21 FLuc	Rango dissoc inh	GLA inh pH 4.5
> COc1ccc(/C=C\c2cc(OC)c(OC)cc2CC[N+](C)(C)C)cc1OC
→ 0.1%	1%	1%	5
> CCOC(=O)COc1ccc(S(=O)(=O)N2CCN(c3ccccc3)CC2)cc1
→ 3.0%	-26%	3%	-1
> Cc1nn(C(C)C(=O)c2cccc(Cl)c2)c(C)c1[N+](=O)[O-] (stereo not drawn)
→ 2.4%	-2%	2%	-15
> CCC(CC)NC(=O)c1ccc(NS(=O)(=O)c2ccc3[nH]c(=O)[nH]c3c2)cc1
→ -0.1%	0%	11%	x
> CCNC(=O)CC1C(=O)N(c2ccc(F)cc2)C(=O)N1Cc1ccc(OC)cc1 (stereo not drawn)
→ -0.4%	-17%	2%	-5
> O=C(NCN1C(=O)C2C3C=CC(C3)C2C1=O)Nc1nncs1 (stereo not drawn)
→ 3.2%	-4%	-5%	-13
> CCOC(=O)N1CCN(S(=O)(=O)c2ccc(OC)c(C(=O)N3CCCCC3)c2)CC1
→ 0.0%	-1%	5%	x
> CCN(C=NC1=NN(c2cccc(C(F)(F)F)c2)CC1)CC
→ 1.6%	-33%	1%	-5
> Cc1ccc(-n2nc(-c3cccs3)cc2C(=O)NCC2CCCO2)c(C)c1 (stereo not drawn)
→ 0.0%	12%	-1%	5
> CC(=O)N1CCOc2ccc(S(=O)(=O)N3CCC(C(=O)Nc4ccc(C)cc4C)CC3)cc21
→ -0.7%	2%	-7%	x
> CCCCN(C(=O)Nc1ccc(Cl)cc1)C1CCN(C(C)=O)CC1
→ -0.2%	-4%&-7%	-2%	1
> Cc1ccc(NC(=O)CN(C)C(=O)CCOc2ccccc2C)cc1
→ -0.2%	-6%	-7%	-3
> O=C(N/N=C/c1ccc(OC(=O)c2ccccc2)c([N+](=O)[O-])c1)c1ccc(O)cc1
→ 6.9%	-21%	3%	-8
> NS(=O)(=O)c1ccc(CCNC(=O)CCc2ccccc2)cc1
→ -0.5%	x	-13%	x
> Cc1ccc2[nH]c(-c3ccccc3)c(CN3CCCC3)c(=O)c2c1
→ -2.0%	-17%	-13%	-5
> CCOc1ccccc1NC(=O)NC1Cc2ccccc2C1
→ 0.7%	-10%	10%	x
> COc1cc(C2c3cc4c(cc3C(O)C3COCC23)OCO4)cc(OC)c1OC (stereo not drawn)
→ -6.5%	x	5%	x
> O=C(COc1ccc(Cl)cc1)Nc1ccccc1CO
→ 5.0%	-44%	-7%	1
> CSc1nc(C)c(C(=O)C[n+]2ccccc2)cc1C#N
→ -1.9%	-3%	-9%	-3
> CCN(CC)C(=O)OCCc1cc2ccccc2c(=O)o1
→ -4.4%	x	-11%	x
> O=C(N/N=C/c1ccccn1)C(O)c1ccccc1 (stereo not drawn)
→ -0.3%	-1%	3%	2
> COc1ccc(CCNC(=O)CN2C(=O)c3ccccc3S2(=O)=O)cc1
→ 1.2%	-6%	-7%	-5
> O=C(CN1C(=O)NC2(CCCC2)C1=O)N1CCN(S(=O)(=O)c2ccc(Cl)cc2)CC1
→ 0.7%	-1%	-18%	4
> Cc1ccc(C)c(S(=O)(=O)N2CCN(C(=O)/C=C/c3ccco3)CC2)c1
→ 0.3%	x	-5%	x
> CC(=O)C(=Cc1cn(-c2ccccc2)nc1-c1ccccc1)C(C)=O
→ 4.9%	1%	-5%	7
> COc1ccc2nc(SC(C(=O)c3ccccc3)c3ccccc3)nc(C)c2c1 (stereo not drawn)
→ 0.1%	-26%	-10%	-6
> COc1ccc(CCN2CC(C(=O)NCCc3ccccc3)CC2=O)cc1OC (stereo not drawn)
→ 2.5%	-55%&-7%	-8%	-5
> Cc1nc2c(-c3ccccc3)c(C)nn2c(SCC(N)=O)c1Cc1ccccc1
→ 4.9%	2%	-11%	-4
> COc1ccc([N+](=O)[O-])cc1NC(=O)c1ccccc1SC
→ -0.4%	-4%	-8%	-5
> COc1ccc(S(=O)(=O)Cc2ccc(C(=O)NCc3ccc(C)cc3)o2)cc1
→ -4.6%	13%	-7%	x
> COc1cc(OC)cc(C(=O)N2CCN(S(C)(=O)=O)CC2)c1
→ -4.5%	0%	-7%	14
> CC1CCN(CC(=O)Nc2ccc(Br)cc2[N+](=O)[O-])CC1
→ -0.1%	-3%	16%	-3
> O=C(Nc1ccccc1C(=O)Nc1ccccc1)c1ccccc1Br
→ 0.6%	x	-5%	x
> CCOC(=O)N1CCN(c2nc(C)c3c(n2)CC(C)CC3=O)CC1 (stereo not drawn)
→ 3.2%	-13%	1%	4
> CN(CCO)c1cc(Sc2nc3ccccc3s2)c2nonc2c1[N+](=O)[O-]
→ 1.6%	u	-13%	-4

Screens deposited in PubChem by National Center for Advancing Translational Sciences (NCATS).
